Screens from PubChem BioAssay.
StopGo reporter: FMDV 2A StopGo reporter, luciferase signal. human cells with a luciferase reporter of 2A StopGo recoding; control for the full effect not named in the record. AID 1159524. Potency, µM (highest dose often 57.9 µM), for inactives: at the top dose signal change, negative = less light. 1.2% of 410,000 active; active = well fitted falling curve with a large enough effect; inconclusive = small, poorly fitted or top-dose-only effect; inactive = no such curve, though single readings can be large or run the other way; tested in HEK293T cells; note: % is set by controls: 0 for no effect and ±100 for the full control effect; nearly all actives have a fitted effect of over 45% in size; luciferase light after 4 h
RE007 growth inh: less growth of the S. pombe RE007 Vpr strain; S. pombe RE007 Vpr strain, BacTiter-Glo ATP luminescence, 24 h; control for the full effect not named in the record; Potency, µM (highest dose often 92.2 µM), for inactives: at the top dose activity change, negative = less growth; 0.21% of 360,000 active; active = well fitted falling curve with a large enough effect; inconclusive = small, poorly fitted or top-dose-only effect; inactive = no such curve, though single readings can be large or run the other way;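 note: % is set by controls: 0 for no effect and ±100 for the full control effect; nearly all actives have a fitted effect of over 50% in size; the assay follows cell death caused by Vpr and the record does not say whether a fall means rescue or toxicity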
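Fission yeast RE007 carrying one integrated HIV-1 vpr copy, seeded at OD 0.01 in PMG+AL medium with 23 nL pinned compound. Grown 24 h at 30 degrees; viability read by BacTiter-Glo luminescence after 5 min.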
SARS PLP yeast: SARS-CoV PLP inhibition in yeast. 0.19% of 330,000 active. S. cerevisiae expressing SARS-CoV PLpro, growth rescue; control for the full effect not named in the record. Potency, µM (doses to about 32.9 µM), for inactives: at the highest dose activity, positive = growth rescue; active means well fitted rising curve with a large enough effect; inconclusive means small, poorly fitted or top-dose-only effect; inactive means no such curve, though single readings can be large or run the other way; note: 0% is about no effect; nearly all actives have a fitted effect of over 55% in size; growth read by luminescence after 48 h
* marks the source's active call; other numbers are inactive results; u = inconclusive; [ ] = remark or other dose. Potency is the fitted concentration of half-maximal effect. The list is partial, so the mix of outcomes need not match the whole.

Sequence of screens – RE007 growth inh, SARS PLP yeast, StopGo reporter
COc1cccc(NC(=O)CN(C)C(=O)c2c(C)nn(CC(C)C)c2Cl)c1
  -6.1%, 5.3%, 2.8%
CC(Sc1nc(N)cc(=O)[nH]1)C(=O)NCC(=O)Nc1ccc(F)c(F)c1F (stereo not drawn)
  3.4%, -1.2%, -8.2%
Cc1cc(C(=O)N2CC(C)CC(C)C2)c(C)o1 (stereo not drawn)
  -1.4%, -11.1%, -21.5%
CC1CCN(C(=O)C2CCN(S(=O)(=O)c3cccc4nsnc34)CC2)CC1
  -4.3%, 0.4%, 1.4%
O=C(NCc1ccco1)c1ccccc1SCC(=O)N1CCCC1
  -4.9%, 0.7%, -1.5%
O=C(COC(=O)CNC(=O)c1ccc([N+](=O)[O-])o1)Nc1ncc(C(F)(F)F)cc1Cl
  6.2%, -3.8%, -4.6%
CCOc1ccc(CN(C)C(=O)c2cc(S(=O)(=O)N3CCCC3)ccc2C)cc1
  -5.5%, 2.4%, u
Cc1cc(C)n(-c2ccc(C(=O)NCC(c3ccco3)N3CCCC3)cc2)n1 (stereo not drawn)
  14.8%, -1.5%, -17.7%
Cc1noc(C)c1S(=O)(=O)Nc1ccc2c(c1)C(=O)N([C@H](C)CO)C[C@H](C)[C@@H](CN(C)C(=O)Nc1ccc3c(c1)OCO3)O2
  8.6%, 1.0%, 2.6%
CCN(CC)S(=O)(=O)c1ccc(N2CCOCC2)c(NC(=O)c2cc(Cl)c3c(c2)OCO3)c1
  -18.8%, 1.4%, 1.2%
CC(NC(=O)CN1C(=O)NC2(CCc3ccccc32)C1=O)c1ccccc1 (stereo not drawn)
  -13.9%, -7.1%, -10.2%
CCCCCCCC(=O)Nc1cc(C(=O)NCc2ccc(C)cc2)ccc1N1CCC2(CC1)CC(c1cccc(Br)c1)=NO2
  17.6%, -0.6%, -13.2%
CCn1c(COc2cccc3cccnc23)nnc1SCC(=O)OC
  -4.1%, -0.2%, 7.2%
CC(C)C[C@@]12C(=O)N(c3cccc(Br)c3)C(=O)N1[C@H](c1ccc(F)cc1)[C@@H]1C(=O)N(C3CCCCC3)C(=O)[C@@H]12
  2.8%, -4.1%, -22.7%
C[C@H](CO)N1C[C@H](C)[C@@H](CN(C)S(=O)(=O)c2cccs2)Oc2ccc(NS(=O)(=O)c3ccccc3)cc2CC1=O
  -1.2%, 1.4%, 10.2%
CC(C)(C)NC(=O)CC1C[C@H](C(=O)N2CCOCC2)[C@@]2(C)c3[nH]c4ccccc4c3CCN2C1=O (stereo partly drawn)
  1.0%, u, -15.6%
Cc1ccc(N2C(=O)C3CCCN3C2=S)c(C)c1 (stereo not drawn)
  -0.1%, -3.2%, -10.5%
CC1CCC2(CC1)NC(=O)N(CC(=O)Nc1cccnc1Cl)C2=O (stereo not drawn)
  8.3%, -4.5%, -16.5%
COc1ccc(/C=N/NC(=S)SC)cc1OC
  5.5%, -1.7%, 28.1%
Cc1ccc(NC(=O)c2nc[nH]c2C(=O)NCc2ccccc2)cc1
  10.7%, -2.9%, -7.9%
COC(=O)c1c(-c2ccccc2OC)sc2ccc(OC)cc12
  -7.5%, -3.5%, -6.1%
Cc1cccc([C@@H]2[C@@H]3C(=O)N(Cc4ccccc4)C(=O)[C@@H]3[C@]3(CC(C)C)C(=O)N(c4cccc(F)c4)C(=O)N23)c1
  2.9%, 3.9%, -24.6%
CN(C)C(=O)CCc1ccc2c3c([nH]c2c1)[C@]1(C)[C@@H](C(=O)N2CCCCC2)C[C@H](CC(=O)NCCCn2ccnc2)C(=O)N1CC3
  -17.2%, 2.3%, -14.2%
Cn1nc(C(=O)NC2CCC(O)CC2)c2ccccc2c1=O (stereo not drawn)
  0.4%, 3.7%, -17.0%
N#Cc1ccc(CN2CCN(C(=O)c3cn(Cc4ccccc4)nc3-c3cccnc3)CC2)cc1
  -9.1%, 0.9%, -5.2%
CCN1CCN(C(=O)c2ccc(-c3nc4ccccc4s3)s2)CC1
  -10.2%, -6.8%, 31.1%[activator]
COc1ccccc1C(=O)NCCC(=O)NCc1ccccn1
  -3.3%, -3.8%, -10.7%
C=CCn1c(SCC(=O)Nc2cc(C)on2)nnc1-c1ccccc1OC
  0.1%, -10.0%, -4.8%
O=C(NN=Cc1ccc(N2CCOCC2)s1)c1ccc([N+](=O)[O-])cc1
  -10.0%, 1.1%, u
COC(=O)C1=C(c2cccc(OCc3ccccc3)c2)C[C@@H]2CC[C@H]1N2C(=O)NCc1ccccc1
  3.4%, 4.0%, -1.0%
COc1ccc(CN2C(=O)C(CC(C)C)Nc3ncnc(N4CCN(c5ccccn5)CC4)c32)cc1 (stereo not drawn)
  5.6%, -1.7%, 0.0%
O=C1COc2ccc(C(=O)COC(=O)CNC(=O)c3ccccc3)cc2N1
  1.8%, -1.8%, -15.0%
COc1ccccc1N(C)S(=O)(=O)c1ccc(C(=O)Nc2nc(C)c(C(C)=O)s2)cc1
  6.1%, 0.5%, u
Cc1cccc(Oc2ccc(NS(=O)(=O)c3ccc(C)c(C(=O)O)c3)cc2)c1
  -1.4%, -5.7%, -7.2%
COc1cccc(CC(NC(C)=O)C(=O)NC2CCN(c3nnnn3-c3ccccc3)CC2)c1OC (stereo not drawn)
  4.0%, -6.9%, -20.2%
COC(=O)C1=C(c2cccc(OCc3ccccc3)c2)C[C@@H]2CC[C@H]1N2C(=O)NCCOc1ccc(OC)cc1
  -5.7%, 9.0%, u
Cc1nnc(NC(=O)c2ccc3ccccc3n2)s1
  -18.6%, -1.9%, 48.4%[activator]
Cc1nccn1CC(=O)c1ccc(O)c(O)c1
  10.9%, 4.0%, -9.0%
CC(C)C[C@H]1CN=C(Nc2ccccc2)N1CC(C)C
  -14.4%, -0.7%, -9.3%
CCN(Cc1ccccc1)C(=O)c1ccc(C)c(S(=O)(=O)N2CCCCC2)c1
  -15.6%, 5.4%, -9.6%
C[C@H](CO)N1C[C@H](C)[C@@H](CN(C)Cc2ccccc2)Oc2c(NS(=O)(=O)c3cn(C)cn3)cccc2C1=O
  18.6%, 0.9%, 55.4%[activator]
CCc1ccc([C@H]2C(C(=O)O)=C[C@@H](C(C)(C)C)N2S(=O)(=O)c2ccc(C)cc2)cc1
  7.8%, 0.0%, 4.1%
COc1cc2c(C(=O)N3CCN(c4ccccc4F)CC3)cn(C)c(=O)c2cc1OC
  8.6%, -7.3%, -9.8%
C=C1CCC2[C@](C)(CO)[C@H](O)CC[C@@]2(C)[C@@H]1C/C=C1\C(=O)OC[C@H]1O (stereo partly drawn)
  -17.4%, 0.7%, u
CN(Cc1ccccc1)S(=O)(=O)c1ccc(N2CCCC2=O)cc1
  15.1%, 0.2%, u
CN(C)S(=O)(=O)c1ccc(Cl)c(NC(=O)C2CCN(S(=O)(=O)c3cccs3)CC2)c1
  8.7%, -0.1%, u
CC(=O)c1cc(-c2ccccc2)n(CC(=O)NC(C)(C)C)c1C
  1.0%, 1.2%, 1.5%
O=C(NC1CCN(C(=O)Nc2ccccc2Cl)CC1)c1ccccc1
  -3.0%, -4.9%, -2.7%
CCOC(=O)C1=CN(CC)S(=O)(=O)NC1c1ccc(C(F)(F)F)cc1 (stereo not drawn)
  -9.9%, -14.1%, -27.0%
COc1cccc(-c2ccc3c(c2)S(=O)(=O)c2cccc(C(=O)O)c2C3=O)c1OC
  8.5%, -1.5%, -7.0%
CC(C)(C)OC(=O)C[C@@H]1C/C=C\C[C@H](CC(=O)N[C@H](CO)Cc2ccccc2)C(=O)N[C@H](Cc2ccccc2)COC1=O
  -8.6%, -4.7%, -6.1%
O=S(=O)(c1ccc(SCCOc2ccccc2)nc1)N1CCCC1
  6.7%, -0.3%, -23.7%
COc1cc(/C=C/C(=O)OCC(=O)N2c3ccccc3NC(=O)C2(C)C)cc(OC)c1OC
  -12.2%, -2.6%, 28.2µM*
O=C(C[C@H]1C/C=C\CCCCC(=O)OC[C@H]2CCCN2C1=O)N[C@H](CO)Cc1ccccc1
  3.6%, 0.2%, -17.2%
Cc1ccc2nc3n(c2c1)CCCN3
  u, -2.8%, -2.7%
Cc1ccc(-c2c(C(=O)O)c(C(=O)O)c3n2CCC3)cc1
  3.5%, -1.9%, 6.6%
CNCC[C@H](Oc1cccc2ccccc12)c1cccs1
  -9.8%[18.4 µM], -1.3%, -17.5%
Cc1cccc(CSc2nc3ccccc3c(=O)n2C)c1
  -1.1%, 0.0%, u
COc1ccccc1NC(=O)COC(=O)c1c[nH]c2ccccc12
  -2.4%, 5.0%, u
O=C(NCC1(N2CCOCC2)CCCCC1)c1cccc(S(=O)(=O)Nc2ccc(F)cc2)c1
  3.8%, -7.0%, 22.1%

(next part)
Sequence of screens – RE007 growth inh, SARS PLP yeast, StopGo reporter
O=C(COC(=O)CCc1ccc(S(=O)(=O)N2CCOCC2)cc1)NCc1ccccc1Cl
  6.5%, -1.9%, -20.5%
CCN(C[C@H]1N[C@@](Cc2ccccc2)(C(=O)OC)[C@H]2C(=O)N(C)C(=O)[C@@H]12)C(=O)c1ccccc1
  3.7%, -0.4%, -13.4%
CN(C)S(=O)(=O)c1ccc(C(=O)Nc2ccccc2SCCC#N)cc1
  10.3%, -3.4%, -8.1%
O=C(CCC(=O)c1cccs1)NCC(c1ccc(F)cc1)N1CCOCC1 (stereo not drawn)
  0.9%, 1.7%, -1.8%
Cc1ccc(C)c(S(=O)(=O)NC2CCS(=O)(=O)C2)c1 (stereo not drawn)
  15.8%, 0.3%, 75.1%[activator]
COc1ccc(Cl)cc1-c1nc(SCC(=O)NCC2CCCO2)n[nH]1 (stereo not drawn)
  14.9%, 4.5%, -23.0%
O=C(COC(=O)COc1ccc2c(c1)CCC2)Nc1ccccc1
  4.5%, 4.7%, 45.5%[activator]
Cc1sc2nc(CSCC(=O)Nc3ccc(C(F)(F)F)cc3)[nH]c(=O)c2c1C
  -3.9%, 1.6%, -27.8%
Cc1ccc(NC(=O)C/C(N)=N/OC(=O)Nc2cccc(C)c2)cc1
  -6.7%, -5.3%, 3.8%
CCOc1ccc(NC(=O)COc2ccc(-n3cnnn3)cc2)cc1
  -10.9%, -1.6%, -2.7%
CCOC(=O)[C@@H]1[C@H]2COc3cc(OC)ccc3[C@H]2N2C(=O)N(c3cccc(F)c3)C(=O)[C@@]12C
  -20.2%, 3.8%, -14.6%
CCOC(=O)[C@H]1[C@H]2COc3cc(OC)ccc3[C@@H]2N2C(=O)CN(Cc3ccc(Cl)cc3)C(=O)[C@@]12C
  3.3%, 5.3%, -20.8%

Some of these compounds in order of molecular weight, falling:
Sequence of screens – RE007 growth inh, SARS PLP yeast, StopGo reporter
O=C(COC(=O)CCc1ccc(S(=O)(=O)N2CCOCC2)cc1)NCc1ccccc1Cl
  6.5%, -1.9%, -20.5%
O=C(NCC1(N2CCOCC2)CCCCC1)c1cccc(S(=O)(=O)Nc2ccc(F)cc2)c1
  3.8%, -7.0%, 22.1%
CCN(C[C@H]1N[C@@](Cc2ccccc2)(C(=O)OC)[C@H]2C(=O)N(C)C(=O)[C@@H]12)C(=O)c1ccccc1
  3.7%, -0.4%, -13.4%
CCOC(=O)[C@@H]1[C@H]2COc3cc(OC)ccc3[C@H]2N2C(=O)N(c3cccc(F)c3)C(=O)[C@@]12C
  -20.2%, 3.8%, -14.6%
Cc1sc2nc(CSCC(=O)Nc3ccc(C(F)(F)F)cc3)[nH]c(=O)c2c1C
  -3.9%, 1.6%, -27.8%
O=C(CCC(=O)c1cccs1)NCC(c1ccc(F)cc1)N1CCOCC1 (stereo not drawn)
  0.9%, 1.7%, -1.8%
Cc1ccc(NC(=O)C/C(N)=N/OC(=O)Nc2cccc(C)c2)cc1
  -6.7%, -5.3%, 3.8%
CCOc1ccc(NC(=O)COc2ccc(-n3cnnn3)cc2)cc1
  -10.9%, -1.6%, -2.7%
O=C(COC(=O)COc1ccc2c(c1)CCC2)Nc1ccccc1
  4.5%, 4.7%, 45.5%[activator]
COc1ccccc1NC(=O)COC(=O)c1c[nH]c2ccccc12
  -2.4%, 5.0%, u
Cc1ccc(C)c(S(=O)(=O)NC2CCS(=O)(=O)C2)c1 (stereo not drawn)
  15.8%, 0.3%, 75.1%[activator]
CNCC[C@H](Oc1cccc2ccccc12)c1cccs1
  -9.8%[18.4 µM], -1.3%, -17.5%
Cc1cccc(CSc2nc3ccccc3c(=O)n2C)c1
  -1.1%, 0.0%, u
